High-throughput results (PubChem BioAssay)
H5N1 antiviral: antiviral screen in MDCK cells, H5N1 avian flu; cytopathic effect, luminescence, 72 h; stronger effect = higher value; no value below 0 was filed and about half of the inactive calls have no number; reference of the scale not given here; inhibition, % at 50 µM; hit rate 0.07% among 96,000; in the data active means inhibition above about 25%
* = called active by the depositor; i = inactive. Not all compounds are listed; count on the stated rates, not on these rows.

Molecule | H5N1 antiviral
COc1ccc2[nH]c(=O)c(CN(CCCN(C)C)C(=O)Nc3ccccc3)cc2c1 | i
COc1cc(NC(=O)C2CCC(CNc3c(N4CCCCC4)c(=O)c3=O)CC2)cc(OC)c1 (stereo not drawn) | 0.5
CC(Sc1nnc(Cc2cccs2)n1C1CCCCC1)C(N)=O (stereo not drawn) | 0.1
CCOc1cc(S(=O)(=O)NCc2ccccc2)ccc1F | 0.8
COc1ccc(CCNC(=O)COC(=O)c2cnccn2)cc1 | i
C=CCn1c(SCC(=O)C(C)(C)C)nnc1-c1cccs1 | i
CCCc1ccc(OCC(O)CN2CCN(c3ccccc3)CC2)cc1 (stereo not drawn) | i
CCCc1nnc(N2C(=O)c3cccc4cccc(c34)C2=O)s1 | 3.1
Cc1csc(SCC(=O)Nc2sc3c(c2C#N)CCC3)n1 | 1.4
c1ccc(CN(Cc2ccco2)C(c2ccncc2)c2nnnn2C2CCCC2)cc1 (stereo not drawn) | 1.7
CC1=CC(=C(C#N)c2nc3ccccc3s2)C=C(C)N1Cc1ccco1 | 1.0
CS(=O)(=O)NCCSCc1ccc(Cl)cc1 | i
CN1CC(=O)N/C1=N\C(=O)Nc1ccc2c(c1)N(C)C(=O)CS2 | i
CN(C(=O)c1ccccc1C(=O)c1ccccc1)C1CCS(=O)(=O)C1 (stereo not drawn) | 0.1
COC(=O)c1cc(NC2c3ccccc3C(=O)N2c2ccc(Cl)cn2)cc(C(=O)OC)c1 (stereo not drawn) | 2.4
C=CCn1c(C)c(C(C)=O)c(N2CCCC2)nc1=S | i
Cc1ccc(C(=O)NCCN(C)C)c(C)c1 | 1.8
COC(=O)c1[nH]c(C)c(/C(O)=C2\C(=O)C(=O)N(CCN(C)C)C2c2ccc(C)o2)c1C (stereo not drawn) | 0.3
O=c1cccc2n1CC1CC2CN(Cc2c(Cl)cccc2Cl)C1 (stereo not drawn) | 1.4
CCOC(=O)CCSc1nc(C)cc(C(F)(F)F)c1C#N | i
COC1(OC)N=C(NC(=O)Nc2ccccc2)C2(C#N)C(c3ccccc3)C12C#N (stereo not drawn) | 1.5
CCCOc1ccc(C(C)=O)cc1CSc1nc(O)cc(=O)[nH]1 | i
COC(=O)CC(NS(=O)(=O)c1cccs1)c1ccccc1Cl (stereo not drawn) | 1.3
COC(=O)CNC(=O)COC(=O)c1cc(Cl)cc(Cl)c1N | i
O=C(NCCN1CCN(c2ccccc2F)CC1)C1c2ccccc2C(=O)N2CCc3ccccc3C12 (stereo not drawn) | i

Filtered by structure, those above containing an NH in an aromatic ring
Molecule | H5N1 antiviral
COc1ccc2[nH]c(=O)c(CN(CCCN(C)C)C(=O)Nc3ccccc3)cc2c1 | i
COC(=O)c1[nH]c(C)c(/C(O)=C2\C(=O)C(=O)N(CCN(C)C)C2c2ccc(C)o2)c1C (stereo not drawn) | 0.3
CCCOc1ccc(C(C)=O)cc1CSc1nc(O)cc(=O)[nH]1 | i

The listing picks up, repeating the 6 entries before the break.
Molecule | H5N1 antiviral
CCOC(=O)CCSc1nc(C)cc(C(F)(F)F)c1C#N | i
COC1(OC)N=C(NC(=O)Nc2ccccc2)C2(C#N)C(c3ccccc3)C12C#N (stereo not drawn) | 1.5
CCCOc1ccc(C(C)=O)cc1CSc1nc(O)cc(=O)[nH]1 | i
COC(=O)CC(NS(=O)(=O)c1cccs1)c1ccccc1Cl (stereo not drawn) | 1.3
COC(=O)CNC(=O)COC(=O)c1cc(Cl)cc(Cl)c1N | i
O=C(NCCN1CCN(c2ccccc2F)CC1)C1c2ccccc2C(=O)N2CCc3ccccc3C12 (stereo not drawn) | i
CC1CCN(C(=O)CNC(=O)Cn2ccc3ccccc3c2=O)CC1 | 0.5
CCN(CC)S(=O)(=O)c1cc(C(=O)Nc2ccccc2C(=O)O)ccc1OC | i
CCCOc1ccc(CNC(=S)N/N=C/c2ccc([N+](=O)[O-])cc2)cc1 | i
COC(=O)CC1=C(C(=O)OC)C2(C(=O)Nc3c(C)cccc32)C(C#N)=C(N)O1 (stereo not drawn) | 0.0
N#C/C(=C(/O)C(Cl)c1ccccc1)c1nc2ccccc2s1 (stereo not drawn) | i
Cc1nc(NC(=O)CC(C)C)sc1-c1csc(Nc2ccc(Cl)cc2Cl)n1 | 1.3
CCC(C)NC(=O)Cn1c(=O)n(CCCC(=O)NCc2ccccc2Cl)c(=O)c2ccccc21 (stereo not drawn) | 0.4
Cc1ccccc1NC(=O)CSc1nnc(Cc2cccn2C)n1-c1ccc(F)cc1 | i
CC(C)(C)c1ccc(S(=O)(=O)N2CC3CC(C2)c2cccc(=O)n2C3)cc1 (stereo not drawn) | 0.4
Fc1ccc(N2CCN(Cc3ccc4c(c3)OCO4)CC2)cc1 | 2.2
COC(=O)c1ccc(COc2cc(O)c3c(c2)OC(C)(C)CC3=O)cc1 | 0.8
CCOC(=O)N1CCN(C(=O)c2ccccc2NC(=O)c2ccc(OC)cc2)CC1 | i
O=C(c1ccc(=O)oc1)N1CCCc2ccccc21 | i
CC1CCN(C(=O)COC(=O)c2cc3ccccc3cc2O)CC1 | i
CC(=O)Nc1ccc(C(=O)CSc2nnc(C)o2)cc1 | i
O=C(COC(=O)CCCNC(=O)c1ccc(Cl)cc1)NCc1ccccc1Cl | 0.6
CC(C)(C)c1ccc(COC(=O)CNC(=O)CNC(=O)Cc2ccccc2)cc1 | i
COc1ccc(-c2nsc(C(=O)N(c3ccc(F)cc3)C(C(=O)NC3CCCC3)c3ccc(OC)cc3)c2N)cc1 (stereo not drawn) | i
Cc1cc(N2CCN(C/C=C/c3ccccc3)CC2)n2ncnc2n1 | i
CC(C)c1nnc(NC(=O)c2cccnc2)s1 | 1.4
CCN1CCN(c2ccc(NC(=O)c3cccnc3)cc2Cl)CC1 | 0.7
CC(=O)c1cc(-c2ccccc2)n(CC(=O)NCc2cccs2)c1C | i
COC(=O)c1cc(Cl)c(NS(=O)(=O)c2ccccc2)cc1OC | 1.5
CC(C)(C)CC(=O)Nc1ccc(Nc2ccccc2)cc1 | i
CCOC(=O)N1CCC(Nc2c(OCC)c(=O)c2=O)CC1 | 0.9
Cc1cc(C)cc(-n2ccnc2SCC(=O)Nc2nccs2)c1 | i
CC1CCc2nc(NC(=O)c3ccco3)sc2C1 (stereo not drawn) | i
CCOC(=O)c1[nH]c(C)c(C(=O)Nc2ccc(C)cc2C)c1C | 0.1
CCOc1ccc(C(=O)N2CCCC2)cc1OC | 0.9
COc1ccc(NC(=O)c2cc3sccc3n2Cc2ccc(F)cc2)cc1OC | i
COc1ccc(CNC(=O)CCCNS(=O)(=O)c2cccc3nonc23)cc1 | 0.5
CCOc1cc(C2CC(=O)N3CN(C4CCCCC4)CSC3=C2C#N)ccc1O (stereo not drawn) | 0.5
Nc1nnnn1/N=C/C(Br)=C/c1ccccc1 | i
CCOC(=O)Cc1csc(NS(=O)(=O)c2ccc3c4c(cccc24)C(=O)N3CC)n1 | 0.5
CCS(=O)(=O)N1CCC(c2nc(-c3ccc(C)cc3)no2)CC1 | i
Cc1noc(C)c1C(=O)OCC(=O)NC1CC1 | i
Cc1cc(C(F)F)n2ncc(C(=O)NCCc3ccccc3Cl)c2n1 | 0.0
Cc1ccc(-c2cc(C(=O)NCCN3CCOCC3)no2)cc1 | 0.3
O=C1CC(N2CCN(c3ccc(S(=O)(=O)N4CCOCC4)cc3)CC2)C(=O)N1Cc1ccccc1 (stereo not drawn) | 0.7
O=c1cc(N2CCc3ccccc3C2)[nH]c(=O)n1-c1ccc(Cl)cc1 | i
CCc1ccccc1N1CSC2=C(C#N)C(c3cc(OC)c(OC)cc3OC)CC(=O)N2C1 (stereo not drawn) | 0.6
CCOC(=O)C1=C2SCC(=O)N2C(N)=C(C#N)C1 | i
COc1ccccc1NC(=O)c1cccc(NC(=O)c2ccco2)c1 | 0.4
COc1cc(CC(=O)OC2CCOC2=O)cc(OC)c1OC (stereo not drawn) | i
COc1cccc(/C=N/n2c(N)c(S(=O)(=O)c3cccs3)c3nc4ccccc4nc32)c1OC | i
CNc1cc(-n2nc(C)cc2-c2ccccc2)ncn1 | i
CCOc1ccccc1CN(Cc1ccco1)S(=O)(=O)c1ccc(-n2cnnn2)c(OC)c1 | 1.6
COc1ccccc1NC(=O)c1nn(-c2ccc(OC(F)(F)F)cc2)ccc1=O | i
Clc1ccc2nc(CSc3nncn3-c3ccccc3)cn2c1 | 2.0
COc1ccccc1Cn1c(CCCO)nc2ccccc21 | i

The list goes on:
SMILES | H5N1 antiviral
C=C(c1ccc(O)cc1)c1ccc(O)cc1 | i
COc1cc(C2C(C#N)=C(N)Oc3n[nH]c(C)c32)ccc1OC(=O)c1ccccc1 (stereo not drawn) | i
O=C(CN1C(=O)NC2(CCCCCC2)C1=O)Nc1ccc(S(=O)(=O)N2CCOCC2)cc1 | 0.5
Cc1ccccc1NC(=O)CSC(N)=O | 0.1
Brc1ccc(-c2cn3cccnc3n2)cc1 | i
CN1C(=O)c2ccccc2C(C(=O)NCCCN2CCCC2=O)C1c1c[nH]c2ccccc12 (stereo not drawn) | i
Cc1ccc(C(=O)N(Cc2nc(-c3ccc(C)cc3)no2)C(C)C)cc1 | 0.3
COc1ccc(C(CC(=O)O)NS(=O)(=O)c2ccc(C)cc2)cc1 (stereo not drawn) | i
Cc1ccc(-c2nnc3sc(CCc4ccccc4)nn23)cc1 | 0.6
CCOCCCNC(=O)C1CCC(CNS(=O)(=O)c2ccc(F)cc2)CC1 (stereo not drawn) | i
O=C(CNC(=O)c1ccco1)OCc1ccc(C(=O)Oc2ccccc2)cc1 | i
COCCn1cc(C(=O)N2CCC(C)CC2)c2c3ccccc3n(C)c2c1=O | 1.4
Cc1cccc(NC(=O)C(C)N2C(=O)C3C4CC(C(Br)C4Br)C3C2=O)c1 (stereo not drawn) | i
NC(=O)c1ncc(C(F)(F)F)cc1Oc1cccc(F)c1 | i
Nc1c2c(nc3ccccc13)N(C1CCCCC1)CC2 | 1.1
Cc1ccc(SCc2nc3ccccc3[nH]2)cc1 | i
CC(=O)OC1CC(C)(C)N(OC(=O)c2ccccc2)C(C)(C)C1 | 1.0
Cc1nc(SCN2C(=O)c3ccccc3C2=O)n[nH]1 | i
c1ccc(CN2CCN(c3nc4ccccc4n4cnnc34)CC2)cc1 | 2.5
OCCN=Cc1c(O)[nH]c2ccccc12 | 0.6
Cc1ccc(/C(O)=C2/C(=O)C(=O)N(Cc3ccco3)C2c2cccs2)cc1 (stereo not drawn) | 0.5
O=C(C1CC1)N1CCc2cc(Br)cc(S(=O)(=O)NCC3COc4ccccc4O3)c21 (stereo not drawn) | 0.4
c1cc2n(c1)-c1c(ccc3c1OCO3)CNC2c1ccc2c(c1)OCO2 (stereo not drawn) | i
COc1ccc(C)cc1NC(=O)C12CCC(C)(C(=O)O1)C2(C)C (stereo not drawn) | 0.4
CC(Oc1ccc2ccccc2c1)C(=O)NNC(=S)NC(=O)c1ccco1 (stereo not drawn) | 0.1
CCCCn1c(SCC(=O)Nc2cc(C)[nH]n2)nc2ccsc2c1=O | i
OCCCCNCc1ccc(OCc2ccc(Cl)cc2)cc1 | 0.6
CCN(CC)S(=O)(=O)c1ccc(C(=O)N2CCN=C2SCc2cccnc2)cc1 | 4.5
Clc1ccc2c(c1)C=Nc1c(NCc3ccccc3)ncnc1O2 | 1.3
Cc1ccc(S(=O)(=O)NCCCN(C)C)cc1 | i
CCc1nc2ccccc2c2nc3ccccc3n12 | i
CCOC(=O)c1cc(C)n(S(=O)(=O)c2ccc(C)cc2)c1C | 1.5
Cc1cccnc1NC(=O)C1CCN(S(=O)(=O)c2cccs2)CC1 | i
CCOC(=O)C(CSCC(=O)c1ccc(Cl)cc1)NC(=O)OC(C)(C)C (stereo not drawn) | i
O=C(CCCn1c(=S)[nH]c2ccc(Br)cc2c1=O)N1CCN(c2ccccn2)CC1 | i
COc1ccc(S(=O)(=O)N2CCCC2C(=O)NCc2cccs2)cc1 (stereo not drawn) | i
Cc1ccc(S(=O)(=O)N2CCN(S(=O)(=O)N3CCOCC3)CC2)c(C)c1 | 0.5
CCCCOC(=O)CCc1n[nH]c(=O)[nH]c1=O | 0.2
Cn1c(-c2cc3c(C(F)(F)F)nn(C)c3s2)n[nH]c1=S | 1.3
COc1cnc(-c2ccccc2)nc1Oc1ccccc1C | 1.0

Some of the entries above, set out differently:
CCS(=O)(=O)N1CCC(c2nc(-c3ccc(C)cc3)no2)CC1
  H5N1 antiviral: i
COc1ccccc1Cn1c(CCCO)nc2ccccc21
  H5N1 antiviral: i
COc1ccc(CNC(=O)CCCNS(=O)(=O)c2cccc3nonc23)cc1
  H5N1 antiviral: 0.5

The listing continues.
SMILES | H5N1 antiviral
c1ccc(C(c2ccccc2)c2nc(-c3cccnc3)no2)cc1 | i
Cc1ccc2c(c1)c1c(n2C)C(=O)CCC1 | i
CCOC(=O)c1nc2ccccc2c(=O)n1-c1ccc(C)cc1 | 0.9
C=CCn1c(SCC(=O)Nc2c(C)nn(Cc3ccccc3)c2C)nnc1C(O)c1ccccc1 (stereo not drawn) | 1.0
O=C(Nc1ccccc1-c1nc2ccccc2s1)c1ccco1 | 1.6
CCn1c(-c2ccco2)n[nH]c1=S | 0.3
O=C(Oc1ccc(/C=N/O)cc1)c1ccccc1 | 0.4
COCCNC(=S)NC12CC3CC(CC(C3)C1)C2 | 1.7
COc1ccc(OC)c(NC(=O)C2C3CCC(O3)C2C(=O)O)c1 (stereo not drawn) | i
Cc1ccc(S(=O)(=O)C2(C(=O)Nc3ccc4c(c3)OCO4)CC2)cc1 | i
Cn1c(CN2CCCC2)nc2cc(NC(=O)COc3ccc(Cl)cc3)ccc21 | i
COC(=O)c1ccc(-n2nnnc2SC)cc1 | 0.3
CCOC(=O)c1c(-c2ccsc2)csc1N | i
CC(C)OCCCN1C(=O)c2ccccc2C1C(=O)NC1CCCCC1 (stereo not drawn) | 0.3
O=C(O)c1cccc(N2C(=O)CSC2c2c(F)cccc2Cl)c1 (stereo not drawn) | i
CCCC(=O)OCC(=O)Nc1cc(C(C)(C)C)nn1-c1ccccc1 | 0.1
COc1ccc(C2(CNC(=O)Cc3ccccc3)CCCC2)cc1OC | 0.1

Single values from above:
Under H5N1 antiviral, `O=C(Nc1ccccc1-c1nc2ccccc2s1)c1ccco1` is listed with 1.6
Under H5N1 antiviral, `CCOC(=O)c1nc2ccccc2c(=O)n1-c1ccc(C)cc1` is listed with 0.9
